RE007 growth inh: qHTS Assay for Inhibitors of the HIV-1 protein Vpr | Potency, µM (top dose mostly 92.2 µM), inactives show at the top dose activity change, negative = less growth | actives 0.21% (n = 360,000) | AID 651644, 2012 | S. pombe RE007 Vpr strain, BacTiter-Glo ATP luminescence, 24 h; control for the full effect not named in the record; active = well fitted falling curve with a large enough effect; inconclusive = small, poorly fitted or top-dose-only effect; inactive = no such curve, though single readings can be large or run the other way;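 also: % is scaled to controls: 0 for no effect and ±100 for the full control effect; nearly all actives have a fitted effect of over 50% in size; the assay follows cell death caused by Vpr and the record does not say whether a fall means rescue or toxicity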
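Fission yeast strain RE007, carrying one chromosomally integrated HIV-1 vpr copy, was seeded at OD 0.01 in PMG+AL medium with 23 nL pinned compound. After 24 h at 30 °C and 99% humidity, viability was read by BacTiter-Glo luminescence.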
MARV entry inh: qHTS for inhibitors of binding or entry into cells for Marburg Virus; Marburg virus pseudotyped entry inhibition, cell reporter; control for the full effect not named in the record; about a third of the inactives were read at about 46 µM; Potency, µM (titrated, usually from 37.8 µM), without a hit: top-dose activity change, negative = inhibition, hits mostly inhibitors; actives 1.8% (n = 300,000); active = well fitted inhibition curve with a large enough effect; inconclusive = small, poorly fitted or top-dose-only effect, or effect the other way; inactive = flat fitted curve, though single readings scatter; tested in HEK293 cells; about a fifth of its hits are not listed in these tables; also: % is scaled to controls: 0 for no effect and ±100 for the full control effect; luciferase read-out
LASV entry inh: qHTS for Inhibitors of binding or entry into cells for Lassa Virus | Lassa virus pseudotype entry inhibition, cell reporter; control for the full effect not named in the record | Potency, µM (doses to about 37.9 µM), for the others: top-dose activity change, negative = inhibition, hits mostly inhibitors | actives 1.2% (n = 300,000) | AID 540256, 2011; active means well fitted inhibition curve with a large enough effect; inconclusive means small, poorly fitted or top-dose-only effect, or effect the other way; inactive means flat fitted curve, though single readings scatter; tested in HEK293 cells; also: % is scaled to controls: 0 for no effect and ±100 for the full control effect; nearly all actives have a fitted effect of over 50% in size; luciferase read-out
Cruzain inh noDet: qHTS Assay for Promiscuous and Specific Inhibitors of Cruzain (without detergent). Cruzipain (Trypanosoma cruzi), P25779. purified cruzain, Z-FR-AMC fluorescence, no detergent. Potency, µM, without a hit: max response, negative = inhibition, actives largely listed as inhibitors. actives 2.3% (n = 200,000). AID 1476, 2009;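 also: plate controls were enzyme without inhibitor for no effect and buffer without enzyme for full effect; nearly all actives have a fitted effect of over 40% in size; top concentration of the series not given in the record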
Target sequence (P25779 123-467 limits assumed): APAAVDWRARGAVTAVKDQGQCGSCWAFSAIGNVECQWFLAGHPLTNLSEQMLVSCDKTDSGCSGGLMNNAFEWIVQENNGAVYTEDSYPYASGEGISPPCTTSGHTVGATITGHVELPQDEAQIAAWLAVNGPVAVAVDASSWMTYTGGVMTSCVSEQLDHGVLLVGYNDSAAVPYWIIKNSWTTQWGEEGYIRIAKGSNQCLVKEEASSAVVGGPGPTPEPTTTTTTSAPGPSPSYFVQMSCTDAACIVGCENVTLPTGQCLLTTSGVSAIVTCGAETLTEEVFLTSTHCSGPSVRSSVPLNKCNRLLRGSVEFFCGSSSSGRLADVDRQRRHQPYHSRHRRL
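Detergent-free condition (0.00005% Triton X-100) in acetate buffer pH 5.5 with DTT. 1.5 nM enzyme and compound were pre-mixed 15 min, then 2 uM Z-FR-AMC substrate added; reaction progress from fluorescence change between first and third reads (60 s).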
SARS PLP yeast: qHTS of Yeast-based Assay for SARS-CoV PLP | Potency, µM (series often up to 32.9 µM), for inactives: at the top dose activity, positive = growth rescue | actives 0.19% (n = 330,000) | S. cerevisiae expressing SARS-CoV PLpro, growth rescue; control for the full effect not named in the record; active means well fitted rising curve with a large enough effect; inconclusive means small, poorly fitted or top-dose-only effect; inactive means no such curve, though single readings can be large or run the other way; also: 0% is about no effect; nearly all actives have a fitted effect of over 55% in size; growth read by luminescence after 48 h
Cruzain Triton: qHTS Assay for Promiscuous and Specific Inhibitors of Cruzain (with detergent). Cruzipain (Trypanosoma cruzi), P25779. purified cruzain, Z-FR-AMC fluorescence, 0.01% Triton. Potency, µM, inactives show max response, negative = inhibition, actives largely listed as inhibitors. actives 0.43% (n = 200,000);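 also: plate controls were neutral wells for no effect and buffer without enzyme for full effect; nearly all actives have a fitted effect of over 40% in size; top concentration of the series not given in the record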
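Enzyme 1.5 nM, Z-FR-AMC 2 uM, NaOAc 100 mM pH 5.5, DTT 5 mM, Triton X-100 0.01%; 15 min RT compound preincubation; kinetic ex360/em450, 60 s delta.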
NS1 function inh: qHTS Assay for Inhibitors of Influenza NS1 Protein Function. actives 0.4% (n = 270,000). Potency, µM (titrated, usually from 46.1 µM), inactives show at the top dose activity, positive = more growth. S. cerevisiae slowed by influenza A NS1, growth recovery by OD600. AID 2326, 2010; active means well fitted rising curve with a large enough effect; inconclusive means small, poorly fitted or top-dose-only effect; inactive means no such curve, though single readings can be large or run the other way; also: nearly all actives have a fitted effect of over 50% in size
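Recovery from NS1-induced slow growth read by OD600 in budding yeast switched to galactose assay medium (pH 6.0, -URA) at 1:100 dilution. Compound 23 nl per well; the matching strain lacking NS1 serves as control.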
StopGo reporter: High Throughput Screening for Foot and Mouth Disease Virus Antivirals | human cells with a luciferase reporter of 2A StopGo recoding; control for the full effect not named in the record | Potency, µM (doses to about 57.9 µM), for inactives: top-dose signal change, negative = less light | actives 1.2% (n = 410,000); active = well fitted falling curve with a large enough effect; inconclusive = small, poorly fitted or top-dose-only effect; inactive = no such curve, though single readings can be large or run the other way; tested in HEK293T cells; also: % is scaled to controls: 0 for no effect and ±100 for the full control effect; nearly all actives have a fitted effect of over 45% in size; luciferase light after 4 h
* hit, by the source's call; ? = inconclusive; / = no result given; [ ] = another dose, or the depositor's remark. Unless noted, calls follow the shape of the dose curve; as a rule, active = well fitted curve in the direction sought with a large enough effect; inconclusive = small, poorly fitted or top-dose-only effect, or another doubt; inactive = no such curve, though single readings can be large; an effect the other way counts as inactive or inconclusive. Potency is read from the fitted curve at half-maximal effect.

Results follow in this order: Cruzain Triton, SARS PLP yeast, LASV entry inh, StopGo reporter, Cruzain inh noDet, RE007 growth inh, NS1 function inh, MARV entry inh
CCOC(=O)Cn1c2c(c(=N)c3ccccc31)CCC2
→ -0.8%, 0%, 1%, -5%, -2%, -4%, 3%, 19%
Cc1cc(C2C(C#N)=C(N)Oc3n[nH]c(C)c32)c(C)s1 (stereo not given)
→ -0.6%, -8%, 8%, ?, -12%, -5%, -7%, 16%
COc1ccccc1N(C)S(=O)(=O)c1ccc(C)c(C(=O)Nc2nccs2)c1
→ /, -2%, 9%, ?, /, -2%, /, -14%
Cc1cc(C)cc(C(=O)NCC(=O)OCC(=O)c2cc(C)n(CC(F)(F)F)c2C)c1
→ -11%, -24%, 5%[46.1 µM], -7%, 14%, 2%, -2%, 6%
Cc1ccc(-n2c(/C=C/c3cc(Br)cs3)nc3ccccc3c2=O)cc1
→ 0.5%, /, ?, -20%, 5%, /, /, /
Cc1cc(=O)n2c3c(c4c(cc13)c(CN(C)C)cc(=O)n4C)OC2
→ /, /, -15%, 6%, /, 6%, /, ?
COC(=O)c1c(C)oc(C)c1S(=O)(=O)NCC1CC1
→ /, 1%, 11%, 128%[activator], /, -18%, 7%, -2%
c1ccc2c(c1)[nH]c1c(N3CCOCC3)ncnc12
→ -2.6%, 5%, -2%, /, -4%, 0%, -12%, -10%
O=C1CC(N2CCN(c3ccccc3)CC2)C(=O)N1Cc1ccc(Cl)cc1 (stereo not given)
→ /, -15%, ?, -4%, /, -29%, /, 9%
Cc1c(CCNS(=O)(=O)c2ccccc2)sc2nc(-c3ccc(Cl)cc3)nn12
→ -5.3%, /, ?, -27%, 12%, /, /, /
COc1cc2c(cc1OC)C(c1cc3cc(C)ccc3[nH]c1=O)N(C(=O)c1ccco1)CC2 (stereo not given)
→ /, 3%, ?, 8%, /, -19%, 5%, -11%[46.1 µM]
COc1ccc(CCNC(=O)C2CCCN2C(=O)Nc2ccc(C)cc2)cc1OC (stereo not given)
→ /, 4%, /, -12%, /, 0%, ?, /
COC(=O)c1cc(NC(=O)C2CC=CCC2C(=O)O)cc(C(=O)OC)c1 (stereo not given)
→ 3.6%, 4%, 2%, 2%, -6%, 0%, 6%, 4%
CCOC(=O)c1nc(N2CCN(C(=O)OCC)CC2)c2c3c(sc2n1)CCCC3
→ -11%, -13%, -26%, /, ?, 0%, -12%, ?
Cc1ccc(-n2ccnc(SCC(=O)NC3CCCC3)c2=O)cc1F
→ /, -2%, 1%, -4%, /, -9%, /, 7%
CCN1CCN(S(=O)(=O)c2cccc3nsnc23)CC1
→ 10%, 1%, -2%, /, -7%, 6%, 2%, -2%
O=C1CC(c2ccco2)Cc2nc(Nc3nc(-c4ccccc4)c4ccccc4n3)ncc21 (stereo not given)
→ -0.8%, 14%, 2%, ?, -11%, 4%, 10%, 10%
Cc1c(O)ccc2c(=O)c(Oc3ccccc3)coc12
→ /, 1%, /, 7%, /, 1%, -1%, /
CC(C)CC(OC(=O)c1ccco1)C(=O)NC1CCCCC1 (stereo not given)
→ 6.7%, -5%, ?, -3%, 2%, 2%, 2%, -9%
C/C(CC(=O)NC12CC3CC(CC(C3)C1)C2)=N\NC(=O)Cc1cccs1
→ -0.7%, 3%, -11%, -15%, 1%, /, 19%, ?
CC(C)C(NC(=S)Nc1ccccc1)C(=O)O (stereo not given)
→ 5.9%, 0%, 18%, 16%, 11%, 0%, 12%, 4%
C=C(C)CSC1=C(C#N)C(c2ccsc2)CC(=O)N1 (stereo not given)
→ 2.0%, -1%, ?, 0%, -15%, -5%, -9%, 7%
COc1ccc(CO[C@@H]2O[C@H](CO)[C@@H](O)[C@H](O)[C@H]2NC(C)=O)cc1OC
→ /, 5%, /, -6%, /, 6%, 2%, /
CN(CC1CCCO1)S(=O)(=O)c1ccc(C(=O)Nc2ccc([N+](=O)[O-])cc2)cc1 (stereo not given)
→ /, -6%, ?, ?, /, ?, -5%, ?
COC(=O)C(C)Sc1nc2c([nH]c3ccccc32)c(=O)n1-c1ccc(OC)cc1 (stereo not given)
→ -3.9%, /, -14%[46.1 µM], -13%, -2%, /, /, /
O=C(NCc1ccccc1Cl)C1CCN(S(=O)(=O)c2ccc3c(c2)CCCN3C(=O)C2CCC2)CC1
→ -5.4%, /, ?, ?, -1%, /, /, /
COC(=O)c1scc(-c2ccc(C)cc2)c1S(=O)(=O)Nc1ccc(NC(C)=O)cc1
→ -5.0%, /, ?, -24%, -4%, /, /, /
COc1ccc(CNC(=O)CSc2nnc(NC(=O)C3CC3)s2)cc1
→ /, -3%, 3%[46.1 µM], 0%, /, -14%, -8%, -6%[46.1 µM]
O=C1CSC(=S)N1Cc1cccs1
→ /, /, -16%, -19%, /, 6%, /, -27%
Cc1ccc(OCc2nnc(SC(C)C(=O)O)n2Cc2ccccc2)cc1 (stereo not given)
→ /, -1%, 3%, -9%, /, 2%, 0%, 5%[14.2 µM]
CC(=O)Nc1ccc(NC(=O)c2ccccc2S(=O)(=O)c2ccccc2[N+](=O)[O-])cc1
→ -3.6%, 25%, 5%, -21%, 3%, -7%, 17%, -3%
COc1ccc(-c2cnc(SCCNC(=O)c3ccc4c(c3)OCO4)[nH]2)cc1
→ /, 2%, ?, -25%, /, 4%, /, -1%
NC(=O)NC(=O)COC(=O)CCCSc1nc2ccccc2s1
→ /, 0%, /, ?, /, 5%, -3%, /
O=C(COC(=O)c1ccc(F)c([N+](=O)[O-])c1)NC(=O)NCc1ccccc1
→ /, 6%, ?, 32µM*, /, -9%, /, ?
COc1ccccc1N(C(=O)c1snc(C(N)=O)c1N)C(C(=O)NCc1ccccc1)c1ccc(O)cc1 (stereo not given)
→ /, 10%, 4.5µM*, -9%, /, 18%, 18%, -21%[46.1 µM]
Cn1nnnc1SCC(=O)NCCc1ccc(Cl)cc1
→ 0.0%, -3%, -1%, 4%, -7%, -13%, -5%, -1%
C/C(=N\NC(=S)Nc1ccc(C)cc1)c1cccc(N)c1
→ /, 11%, -11%, 48%[activator], /, 2%, 6%, 21%[46.1 µM]
Cc1c(C(=O)N2CCN(CCc3ccccn3)CC2)oc2ccc(Cl)cc12
→ /, 0%, /, -11%, /, -12%, -20%, /
CCC(=O)N(CCc1ccccc1)Cc1cc2cccc(C)c2[nH]c1=O
→ /, 0%, /, -16%, /, -6%, 24%, /
CC1CCCC(NS(=O)(=O)c2cccc3nsnc23)C1C (stereo not given)
→ /, 1%, -15%[46.1 µM], 14%, /, 2%, -8%, -10%[46.1 µM]

Next section (five carried over from the part before).
Results follow in this order: Cruzain Triton, SARS PLP yeast, LASV entry inh, StopGo reporter, Cruzain inh noDet, RE007 growth inh, NS1 function inh, MARV entry inh
Cn1nnnc1SCC(=O)NCCc1ccc(Cl)cc1
→ 0.0%, -3%, -1%, 4%, -7%, -13%, -5%, -1%
C/C(=N\NC(=S)Nc1ccc(C)cc1)c1cccc(N)c1
→ /, 11%, -11%, 48%[activator], /, 2%, 6%, 21%[46.1 µM]
Cc1c(C(=O)N2CCN(CCc3ccccn3)CC2)oc2ccc(Cl)cc12
→ /, 0%, /, -11%, /, -12%, -20%, /
CCC(=O)N(CCc1ccccc1)Cc1cc2cccc(C)c2[nH]c1=O
→ /, 0%, /, -16%, /, -6%, 24%, /
CC1CCCC(NS(=O)(=O)c2cccc3nsnc23)C1C (stereo not given)
→ /, 1%, -15%[46.1 µM], 14%, /, 2%, -8%, -10%[46.1 µM]
CNC(=O)c1cc2ncc(C(F)(F)F)cc2s1
→ /, 1%, 20%[46.1 µM], 4%, /, 3%, 5%, ?
O=[N+]([O-])c1ccc(/C=N/Nc2nc(-c3ccccc3)c3cc(Br)ccc3n2)o1
→ -2.5%, 1%, 13%, ?, ?, -17%, 3%, 16%
O=C(CCCN1C(=O)c2ccccc2C1=O)N1CCC(c2ccccc2)C1 (stereo not given)
→ 3.2%, -6%, -8%, -11%, 1%, 1%[3.69 µM], -45%, 0%
CCOc1ccc(S(=O)(=O)N2CCC(C(=O)NCc3cccnc3)CC2)cc1C
→ /, -3%, -16%, -13%, /, -8%, 2%, -6%[46.1 µM]
COc1ccc(C2N=C(Nc3ccc(C)cc3)Nc3nc(C)cc(=O)n32)cc1 (stereo not given)
→ -1.7%, 8%, 23%, 23%, -2%, 3%, -6%, -5%
O=C(COc1ccccc1)N(Cc1nnc(-c2ccccc2Cl)o1)C1CC1
→ /, -4%, 16%[46.1 µM], 57%[activator], /, 4%, /, 2%
COc1ccc(Cn2c(C(=O)O)c(CNCc3ccccc3F)c3ccc(OC)cc32)cc1
→ -3.6%, /, ?, 16%, -3%, /, /, /
O=C(NCc1cccnc1)c1ccc(Br)o1
→ /, -3%, -3%, -16%, /, -3%, /, ?
Cc1cc(O)c(C2(O)C(=O)Nc3ccccc32)cc1C (stereo not given)
→ /, 0%, /, -22%, /, 0%, 5%, /
COc1cccc(OCC(=O)NNC(=S)Nc2ccc(Cl)cc2Cl)c1
→ /, 0%, 4%[46.1 µM], -6%, /, 7%, 6%, -4%[46.1 µM]
Cc1cccc(CSCCNC(=O)CCSc2ccccc2)c1
→ -6.5%, -75%, 3%, -10%, 12%, 20%, -90%, ?
CCOC(=O)c1ccccc1NC1c2ccccc2C(=O)N1c1cc(C)ccn1 (stereo not given)
→ -14%, -12%, /, -6%, -2%, -8%, 4%, /

Rows are unselected; any-hit rate near 4.7%.
